PINK1 expr mod = A Quantitative High throughput Screen to Identify Chemical Modulators of PINK1 Expression | PINK1 immunofluorescence, high-content cytometry, 24 h | Potency, µM (top dose mostly 76.6 µM), for inactives: at the highest dose activation (PINK1 increase), actives largely listed as activators | 410,000 compounds, 0.2% hits; active = well fitted activation curve with a large enough effect; inconclusive = small, poorly fitted or top-dose-only effect; inactive = flat fitted curve, though single readings scatter; cell line not stated here;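 further: potency means the concentration at half of the fitted maximal effect; % of control where 0% means no effect; nearly all actives have a fitted effect of over 65% in size; a mitochondrial uncoupler was the plate control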
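Readout is PINK1 immunofluorescence, quantified alongside mitochondrial, cell and nuclear markers by laser-scanning microplate cytometry. Cells from a stable line were exposed to compound titrations (5 concentrations) for 24 hours, with CCCP controls.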
TRPML1 ag = qHTS for Agonists of the Human Mucolipin Transient Receptor Potential 1 (TRPML1) | Mucolipin-1 (Homo sapiens), Q9GZU1 | TRPML1-expressing cells, Ca2+ dye fluorescence, FDSS; host cell line not named in the record; reference of the full effect not given here | activation, % (concentration not given with the values) | 410,000 compounds, 0.12% hits; in the data active = activation above about 50%; inconclusive = about 30% to 50%; inactive = below about 30%; further: 0% is about no effect; the text of the record puts the active cut at 80%
Target sequence (Q9GZU1 whole entry, looked up): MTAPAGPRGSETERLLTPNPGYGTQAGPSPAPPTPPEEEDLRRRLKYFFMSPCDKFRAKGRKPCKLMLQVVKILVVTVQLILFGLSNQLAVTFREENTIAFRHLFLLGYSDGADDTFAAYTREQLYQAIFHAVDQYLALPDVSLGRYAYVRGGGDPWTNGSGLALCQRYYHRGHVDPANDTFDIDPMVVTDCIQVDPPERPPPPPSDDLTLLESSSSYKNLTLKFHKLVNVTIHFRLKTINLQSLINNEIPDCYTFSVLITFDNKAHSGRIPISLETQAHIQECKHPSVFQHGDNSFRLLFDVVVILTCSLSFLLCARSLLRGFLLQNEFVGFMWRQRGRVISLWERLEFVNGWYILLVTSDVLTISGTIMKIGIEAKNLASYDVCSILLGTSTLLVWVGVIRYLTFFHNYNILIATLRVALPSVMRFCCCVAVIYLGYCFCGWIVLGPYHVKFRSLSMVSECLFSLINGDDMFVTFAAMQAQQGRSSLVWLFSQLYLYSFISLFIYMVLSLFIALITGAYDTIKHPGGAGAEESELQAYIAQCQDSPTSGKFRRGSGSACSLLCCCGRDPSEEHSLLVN
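In this qHTS format, compounds were pin-transferred onto Ca8-dye-loaded TRPML1-DL cells induced with Tet overnight, and intracellular Ca2+ fluorescence was recorded kinetically for 110 s after a 10 s baseline. A subsequent 4uM final 54-4 (EC80) addition followed by a second 110 s read served as the antagonist phase.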
D2 ag = Beta-Arrestin HTS for Positive Allosteric Modulators of the Human D2 Dopamine Receptor: Agonists | activation, % (no concentration beside the values) | D(2) dopamine receptor (Homo sapiens), P14416 | 360,000 compounds, 0.084% hits | DiscoveRx PathHunter D2 beta-arrestin, luminescence, 90 min; 100% = 57 uM dopamine signal; in the data active = activation above about 40%; inconclusive = about 15% to 40%; inactive = below about 15%; further: compound concentration not given in the record; the text of the record calls up to 30% inactive
Target sequence (P14416 whole entry, looked up): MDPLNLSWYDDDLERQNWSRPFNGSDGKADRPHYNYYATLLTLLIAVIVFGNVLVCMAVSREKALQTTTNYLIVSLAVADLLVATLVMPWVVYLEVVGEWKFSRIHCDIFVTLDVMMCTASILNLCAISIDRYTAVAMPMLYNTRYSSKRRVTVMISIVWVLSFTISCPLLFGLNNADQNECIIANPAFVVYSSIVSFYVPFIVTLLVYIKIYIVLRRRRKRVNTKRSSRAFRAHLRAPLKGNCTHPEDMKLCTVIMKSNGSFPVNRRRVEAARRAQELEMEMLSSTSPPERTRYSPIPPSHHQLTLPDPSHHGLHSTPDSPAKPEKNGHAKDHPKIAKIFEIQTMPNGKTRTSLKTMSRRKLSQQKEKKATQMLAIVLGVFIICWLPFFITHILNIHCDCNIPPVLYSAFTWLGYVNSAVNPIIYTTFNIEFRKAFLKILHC
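DiscoveRx PathHunter D2 beta-arrestin cells (2,100/well) attached overnight, then compound-stimulated 90 min at 37 C in HBSS/10 mM HEPES/0.1% Tween-20 buffer; beta-galactosidase complementation read by luminescence after 1 h at ambient temperature. Dopamine 57 uM final (EC100) as control.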
TRPML1 inh = qHTS for Inhibitors of the Human Mucolipin Transient Receptor Potential 1 (TRPML1) | Mucolipin-1 (Homo sapiens), Q9GZU1 | TRPML1-inducible cells, Ca2+ dye fluorescence, FDSS; stronger effect = lower value; inhibition of EC80 agonist-evoked calcium signal | activity change, negative = inhibition, % (test concentration not listed) | 390,000 compounds, 0.02% hits; in the data active means activity change below about -50%; inconclusive means about -30% to -50%; inactive means above about -30%;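 further: stimulus is agonist 54-4 at its EC80 concentration; on the % scale 0 is the no-effect control and ±100 the full control effect; compound concentration not given in the record; the text of the record puts the active cut at -80%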
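Tet-induced TRPML1-DL cells loaded with Ca8 no-wash calcium dye were read kinetically on FDSS. Compound addition was followed by EC80 agonist 54-4 (4 uM final); inhibition was read over 110 s.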
Six1-Eya2 blk = qHTS Assay for Inhibitors of the Six1/Eya2 Interaction; Homeobox protein SIX1 (Homo sapiens) + Protein phosphatase EYA2 (Homo sapiens), …; activity change, % (concentration not given with the values); AID 651725, 2012; AlphaScreen GST-Six1/His-Eya2 binding, biochemical; stronger effect = lower value; control for the full effect not named in the record; 360,000 compounds, 0.56% hits; in the data active = activity change below about -65%; inconclusive = about -30% to -65%; inactive = above about -30%; further: on the % scale 0 is the no-effect control and ±100 the full control effect
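Homogeneous AlphaScreen proximity assay pairing GST-Six1 with His-tagged Eya2 (added as 5X mix: 250 nM and 500 nM) in 50 mM Tris pH 8.0, 300 mM NaCl, 1 mM TCEP. Glutathione donor and nickel acceptor beads; 1 h, 37 °C, dark.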
CtBP-E1A inh = qHTS Assay for Inhibitors of the CtBP/E1A Interaction | 340,000 compounds, 0.49% hits | AlphaScreen GST-E1A/His-CtBP binding, 1536-well; stronger effect = lower value; control for the full effect not named in the record | AID 651724, 2012 | activity change, % (no concentration beside the values) | CtBP / adenovirus E1A interaction (AlphaScreen); in the data active means activity change below about -65%; inconclusive means about -30% to -65%; inactive means above about -30%; further: on the % scale 0 is the no-effect control and ±100 the full control effect
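Protein mix (5X: 125 nM each GST-E1A, His-CtBP) was incubated with pinned compound 2 h at 37 deg C in dark, in 50 mM Tris pH 8.0 buffer with 300 mM NaCl. Glutathione donor and nickel acceptor beads followed; AlphaScreen signal read after 1 h.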
* hit, by the source's call; ? = inconclusive; . = not tested or not shown; & = joins results of further samples; [ ] = another dose, or the depositor's remark.

Compound,PINK1 expr mod,TRPML1 ag,D2 ag,TRPML1 inh,Six1-Eya2 blk,CtBP-E1A inh
Cc1ccc(NC(=O)c2sc(N)nc2-c2ccc([N+](=O)[O-])cc2)c(C)c1,6.7%,-0.5,-3.3,10,4,1
COc1ccc(/C=C2\SC(=S)N(NS(=O)(=O)c3ccccc3)C2=O)c(OC)c1,1.9%,.,-5.6,.,-3,4
CC(C)(C)NC(=O)CCSc1nc(-c2ccc3c(c2)OCO3)cc(C(F)(F)F)n1,0.5%,3.7,.,18,.,.
c1ccc2c(c1)nnn2CNc1nccs1,1.0%,0.3,-0.5,-8,32,38
[N-]=[N+]=CC(=O)C(Cc1ccccc1)N1C(=O)c2ccccc2C1=O (centres undefined),-0.5%,0.0,-2.1,-12,3,3
COc1ccc(N2CCN(CCCNC(=O)C3CCCN(S(=O)(=O)c4cnc[nH]4)C3)CC2)cc1 (centres undefined),0.6%,-0.3,-3.8,-3,2,-2
O=C(CN1CCN(c2nc(-c3ccc(F)cc3)cs2)CC1)NCc1ccc2c(c1)OCO2,-4.9%[38.3 µM],0.0,4.4,-2,-22,-21
CC(O)CNCc1ccccc1C(F)(F)F (centres undefined),-0.5%,0.3,0.4,8,4,3
Cc1cc(C)cc(N(CC(=O)NC2CCCCC2)C(=O)CNC(=O)c2ccco2)c1,3.0%,-0.2,-7.5,10,-2,20
CC1CC(C#N)N(N(C)C)C1=C(C#N)C#N (centres undefined),0.7%,-0.3,-1.1,-14,-14,5
O=C(CN1CCOCC1)n1c2ccccc2c2ccccc21,2.5%,-0.6,-0.3,-7,6,-3
COc1ccc(NC(=O)Cn2c(=O)n(C(C)C)c(=O)c3oc4ccccc4c32)cc1Cl,0.2%,-0.3,.,-4,.,.
O=C(Nc1cccc(S(=O)(=O)N2CCOCC2)c1)c1cc(=O)[nH]c2ccccc12,-0.4%,0.1,0.3,9,-2,-12
O=C(COc1cccnc1[N+](=O)[O-])Nc1cccc2ccccc12,6.5%,0.0,-2.5,-9,-6,2
Cc1ccc(S(=O)(=O)NCc2ccccc2)cc1C(=O)N1CCN(c2ccccc2)CC1,1.2%,-0.1,-0.2,-8,-1,-6
COc1ccc(C(CC(=O)O)NS(=O)(=O)c2ccc3c(c2)N(C(C)=O)CC(C)O3)cc1 (centres undefined),0.0%,0.3,-0.3,-13,7,-1
C=CCn1c(SCC(=O)NNC(=O)Nc2cccc(Cl)c2)nnc1-c1ccccc1,-0.4%,1.4,2.4,0,1,.
O=C(CSc1nnc(Cn2c(=O)sc3ccccc32)n1-c1ccccc1)NCc1ccco1,-4.1%,1.6,-2.8,-6,-4,3
CSc1cccc(NC(=S)N(CCC(C)C)C2CCN(C(C)=O)CC2)c1,1.3%,0.0,-3.9,5,4,-19
CCOc1ccccc1NC(=O)c1cnc(NS(=O)(=O)c2ccccc2)nc1,0.8%,0.4,-4.7,1,5,3
CC1CCN(Cc2c(C(=O)N/N=C/c3cccc(C(F)(F)F)c3)nnn2-c2nonc2N)CC1,7.0%,-0.7,-8.3,10,-13,0
COC(=O)C1=CN(Cc2cccs2)C=C(C(=O)OC)C1c1cccc(Cl)c1,2.0%,3.9,-0.4,23,64,37
COc1ccc(C)cc1Nc1ncnc2c1c(-c1ccccc1)cn2-c1ccc(C)cc1,3.6%,0.2,.,15,.,.
COc1ccc(NS(=O)(=O)c2cc(NC(=O)COc3ccc(OC)cc3)ccc2N2CCOCC2)cc1,0.6%,1.7,-0.1,-5,-23,9
CCOC(=O)c1csc(NC(=O)CSc2nnnn2-c2ccc(OCC)cc2)n1,?,3.2,-2.1,-18,4,-2
CCOC(=O)c1cc(-c2ccc(C)cc2)n(CCC(=O)N2CCN(c3ccccn3)CC2)c1C,7.8%,-0.6,-3.6,-11,?,0
CC(C)NC(NC(=O)/C=C/c1ccccc1)C(Cl)(Cl)Cl (centres undefined),3.0%,-1.4,10,1,10,8
COc1ccc(Cc2c(-c3ccc(C#N)cc3)nc3c4ccccc4ccn23)c(C)c1,3.4%,-0.2,.,.,-4,4
COc1ccc(OC)c(/C=N/n2c(-c3n[nH]c4c3CCC4)n[nH]c2=S)c1,-1.0%,-0.6,-2.4,12,-21,4
NC(=O)c1ccc(NCC2CCCO2)c([N+](=O)[O-])c1 (centres undefined),-0.7%,0.5,-2.1,0,-23,-16
CC(SC1=NCCS1)C(=O)Nc1nnc(-c2ccc(F)cc2)s1 (centres undefined),3.4%,0.9,-0.1,-10,-3,-10
Cn1nc(-c2ccccc2)c(C(=O)NC(C(=O)O)c2ccccc2)c1Cl (centres undefined),0.8%,2.4,-1.0,-15,22,5
CCOC(=O)c1cc(C)n(-c2ccccc2)c1C,4.1%,2.8,1.2,-18,-1,-3
CCOC(=O)C(CC)Sc1nnc(COc2ccc(C)cc2)n1-c1ccccc1 (centres undefined),-4.6%,3.2,-3.4,16,23,37
S=C1SCN(Cc2ccccc2)CN1Cc1ccco1,3.0%,-0.5,-1.3,11,-30,0
Cc1cccc(OCC(=O)O/N=C(\N)c2ccccn2)c1C,0.4%,-0.9,-1.2,-13,8,15
Clc1cccc(Cc2c(-c3ccco3)nc3c4ccccc4ccn23)c1,0.5%,2.6,.,.,-29,-26
Cc1cccc(NC(=O)CSc2n[nH]c(-c3ccncc3)n2)c1,4.7%,-0.1,1.5,-12,-3,5
COc1ccc2c(c1)c(=O)oc1cc(OCC(=O)NCC3CCC(C(=O)O)CC3)ccc12 (centres undefined),1.6%,.,-2.6,.,-3,5
C/C(=N\Nc1ccccc1)c1c(O)cc(C)oc1=O,0.8%,1.4,-0.8,-16,7,5
CCn1cc(C(=O)O)c(=O)c2cnc(N3CCN(C(=S)Nc4ccc(F)cc4)CC3)nc21,0.4%,0.1,0.6,28,5,-16
CC(=O)c1ccc(NC(=O)CCC(=O)OCC(F)(F)C(F)F)cc1,-2.0%,1.1,-1.2,18,5,9
CC(NC(=O)c1cccnc1Sc1ccccc1)c1ccc(S(N)(=O)=O)cc1 (centres undefined),0.1%,1.2,-1.7,5,-1,-6
COc1ccc(/C=C2/C(=O)ON=C2C)cc1Cl,4.7%,0.0,-5.7,11,-6,-7
COc1ccc(NC2CCCN(C(=O)Cn3ccc(C)n3)C2)cc1OC (centres undefined),-1.5%,0.3,1.5,-4,4,-4
Cc1cc(C)nc(N/C(=N/S(=O)(=O)Cc2ccccc2)Nc2ccccc2)n1,1.9%,-0.1,0.9,1,-2,0
CC1=C(C(=O)Nc2ccccc2)C2(CCCCC2)C(C#N)=C(SCC(N)=O)N1,-0.2%,-0.2,1.1,-3,-7,-8
CCc1cc(C(=O)Nc2ccccc2N2CCOCC2)sc1C,0.2%,2.8,-0.4,10,6,4
Cc1nc(-c2ccc(Cl)cc2)sc1CCNC(=O)C(=O)Nc1ccc2c(c1)OCCO2,5.1%,1.0,.,-9,.,.
Clc1cccc(Cl)c1-c1noc(-c2ccno2)n1,0.8%,2.7,-1.9,-23,15,13
CCCc1cc(=O)n2[nH]c(NCc3c(F)cccc3Cl)nc2n1,-3.2%&-0.8%,0.8&-0.7,0.6,4&0,11,-5
O=C(/C=C/c1ccco1)NC(=S)Nc1ccc(C(=O)O)cc1,1.4%,0.4,1.0,9,?,-2
Cn1c(-c2ccc3ccccc3n2)nc2cnccc21,-2.3%,2.5,-3.9,-3,17,23
O=C(CN1CCN(c2ccc(F)cc2)CC1)c1ccc(O)cc1O,0.4%,0.3,-4.7,-3,-4,.
Cc1ccc(S(=O)(=O)N2CCCCC2)cc1C(=O)OCC(=O)N1c2ccccc2NC(=O)C1(C)C,2.1%,-1.1,3.6,0,3,0
CCOC(=O)c1cc(NC(=O)Nc2ccccc2Cl)c(C)nc1C,-0.6%,0.2,6.8,-9,-2,.
CCc1ccc(NC(=O)N2CCC(c3ccccc3)C2)cc1 (centres undefined),2.9%,0.0,-0.4,1,0,9
CSCC[C@H](NC(=O)OC(C)(C)C)C(=O)N1CCC(C(=O)N[C@@H](Cc2c[nH]c3ccccc23)C(=O)O)CC1,-1.8%,0.6,-1.2,9,-2,0
CCN(C(=O)CSc1nnc(Cc2cccc3ccccc23)n1N)C1CCS(=O)(=O)C1 (centres undefined),-0.9%,0.0,2.3,41,3,3
Cc1cc(C)c(S(=O)(=O)N2CCOCC2)c(C)c1N(C)S(=O)(=O)c1ccccc1,-0.2%,-0.3,-1.6,7,-1,-4

(cont.)
Compound,PINK1 expr mod,TRPML1 ag,D2 ag,TRPML1 inh,Six1-Eya2 blk,CtBP-E1A inh
CCOc1ccc(NC(=S)N(CCc2ccncc2)C(C)C)cc1,2.7%,-0.7,-1.2,-5,2,1
O=C1c2ccccc2C(O)N1Cc1cccs1 (centres undefined),1.5%,0.3,-2.7,0,5,8
O=C(Cn1ccc2cc(S(=O)(=O)N3CCCCC3)ccc21)NCc1ccccc1F,1.7%,-0.2,-3.2,11,0,5
CC(C)CCn1c(=O)c(C(=O)N/N=C/c2cccc(F)c2)c(O)c2ccccc21,2.4%,-0.2,-0.2,1,4,-11
NC(=O)c1ccccc1N/C=C/C(=O)c1cccs1,0.8%,-0.4,-6.6,10,11,3
O=C(Nc1nnc(-c2ccccc2Cl)o1)c1cccnc1,-4.2%[38.3 µM],0.7,-1.2,24,-29,-28
CCC(=O)N1CCc2cc(S(=O)(=O)NC(C(=O)NCc3ccccc3Cl)C(C)C)ccc21 (centres undefined),0.5%,-0.1,.,1,.,.

Molecules from the list above with a CF3 group:
Compound,PINK1 expr mod,TRPML1 ag,D2 ag,TRPML1 inh,Six1-Eya2 blk,CtBP-E1A inh
CC(C)(C)NC(=O)CCSc1nc(-c2ccc3c(c2)OCO3)cc(C(F)(F)F)n1,0.5%,3.7,.,18,.,.
CC(O)CNCc1ccccc1C(F)(F)F (centres undefined),-0.5%,0.3,0.4,8,4,3
CC1CCN(Cc2c(C(=O)N/N=C/c3cccc(C(F)(F)F)c3)nnn2-c2nonc2N)CC1,7.0%,-0.7,-8.3,10,-13,0

Screening data as filed in PubChem.

Compounds as they come; any-hit rate near 1%.
